From PubChem BioAssay
Bead autofluor: compound fluorescence in toxin protease inhibitor counterscreen; compound autofluorescence counterscreen, microsphere flow cytometry; active compounds read high; fluorescence intensity (test concentration not listed); hit rate 3.1% among 360,000; AID 624483;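 active = at least 3 SD above the mean of all compounds, about 16000 in these data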;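 note: 100 nL of 1 mM stock went into each well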
* = called active by the depositor. These rows are one share of the data, so the mix of outcomes need not match the whole.

Molecule	Bead autofluor
NS(=O)(=O)c1ccc(CCNc2nn3c(-c4cccc(OC(F)(F)F)c4)cnc3s2)cc1	3874
CC(=O)Nc1cccc(-c2ccnc3c2CC(C(=O)NCCC(F)(F)F)O3)c1 (configuration not stated)	3547
CCCNC(=O)c1cc(C2CCCN(C(=O)c3cc(C(C)(C)C)nn3C)C2)on1 (configuration not stated)	4056
O=C(NCc1ccccc1Cl)c1[nH]c(C(F)(F)F)nc1-c1ccccc1	5152
O=C(O)C1CC(Br)C(Br)CC1C(=O)O (configuration not stated)	3770
C[C@H]1CN([C@@H](C)CO)C(=O)CCCn2nncc2CO[C@H]1CN(C)C(=O)Nc1ccnc(N2CCOCC2)c1	3469
CCCS(=O)(=O)NC(=O)C1(C)CCN(C(=O)c2cc(F)ccc2C)C1 (configuration not stated)	3841
CS(=O)(=O)N(CC(=O)N1CCCC1)C1CCCCC1	4043
C=C1C(=O)[C@]23C[C@H]1CCC2[C@@]1(C)C(C[C@@H]3O)[C@](C)(C(=O)O)C[C@H](O)[C@@H]1O (some centres not stated)	6513
Cc1noc(C)c1S(=O)(=O)Nc1ccc2c(c1)C(=O)N([C@H](C)CO)C[C@H](C)[C@H](CN(C)C(=O)NC(C)C)OCCCC[C@@H](C)O2	4255
O=C(NCC1=C(c2ccc3ccccc3c2)C[C@@H]2CC[C@H]1N2Cc1ccco1)c1ccc([N+](=O)[O-])cc1	4103
CCOC(=O)N(C)c1c(CC)nc2c(OCCC3CCCCC3)cccn12	3483
O=C(CSc1ccc2nnc(-c3cccnc3)n2n1)Nc1ccccc1F	3731
COc1cc2c(cc1[N+](=O)[O-])-c1ccc([N+](=O)[O-])cc1C2	3785
CN1CCCN(c2cc(-c3ccc4ccccc4c3)nc3ccnn23)CC1	1174
O=C(Nc1ccc([N+](=O)[O-])cc1)C(c1ccccc1)c1ccccc1	3550
Fc1cccc(Cc2c(-c3ccco3)nc3c4ccccc4ccn23)c1	6628
OC[C@@H]1CN(Cc2cccnc2)C[C@H](n2cnc3c(NC4CCCC4)ncnc32)O1	2899
COCOCCn1cc(CN2CCS(=O)(=O)N(Cc3ccc(-c4ccc(OC)cc4)cc3)C(CC(C)C)C2=O)nn1 (configuration not stated)	3745
O=C1CCC(OCc2ccccc2)CCN1[C@H](CSc1ccccc1)Cc1ccccc1 (some centres not stated)	4425
COc1ccc2c(CN3CCN(C(C)=O)CC3)cc(=O)oc2c1	6296
C[C@H](CO)N1C[C@H](C)[C@@H](CN(C)S(=O)(=O)c2cccc(F)c2)OCc2cnnn2CCCC1=O	3698
Cc1ccc(S(=O)(=O)NC(=O)C2(C)CCN2C(=O)c2ccccc2CCc2ccccc2)cc1 (configuration not stated)	3805
CCN(CC)C(=O)C1=C(C)N(Cc2ccc(C(C)(C)C)cc2)C(=O)C(CC(=O)NC(c2ccccc2)c2ccccc2)C1 (configuration not stated)	2972
CC(C)c1cc(C(=O)OCC(=O)NC2CCS(=O)(=O)C2)c(O)c(C(C)C)c1 (configuration not stated)	3919
COc1ccc(-c2nc3ccc(Br)cn3c2Cc2cccc(Cl)c2)cc1OC	6815
CCN(CC(=O)Nc1ccc2c(c1)OCCO2)C(=O)COc1ccc(C(C)=O)cc1	3288
CCc1nc2c(OCCn3cccc3)cccn2c1N(C)C(=O)c1ccc(C)cc1	3791
CC(C)(C)NC(=O)C1c2ccccc2OCC(=O)N1CCCN1CCOCC1 (configuration not stated)	5486
O=C(COC(=O)c1cnc(Cl)c(Cl)c1)NC1CCCC1	3038
CC(C)(C)NC(=O)C(c1ccc(O)cc1)N(Cc1ccc2c(c1)OCO2)C(=O)CCl (configuration not stated)	4052
O=C(CC[C@H]1O[C@@H](n2ccc(=O)[nH]c2=O)[C@H](O)[C@@H]1O)N[C@H](Cc1ccccc1)C(=O)NCc1cccs1	4174
COc1ccc(-c2cc(NC(C)=O)c3ncc(-c4cc(OC)c(OC)c(OC)c4)n3c2)cn1	2715
CCCCNC(=O)C1(C)CCC(=O)N1C1CCN(Cc2ccccc2)CC1 (configuration not stated)	4251
O=[N+]([O-])c1ccc(C(S(=O)(=O)Cc2ccccc2)S(=O)(=O)Cc2ccccc2)cc1	3345
O=C(NC(c1ccccc1)c1ccc2ccccc2n1)C1CCN(Cc2ccc(Oc3ccccc3)cc2)CC1 (configuration not stated)	5026
NC(=O)c1cccc(Nc2nc(C(N)CCc3ccccc3)cs2)n1 (configuration not stated)	3607
COc1ccc2c(CN3CCCC3)cc(=O)oc2c1	6148
O=C(CC[C@H]1O[C@@H](n2ccc(=O)[nH]c2=O)[C@H](O)[C@@H]1O)N[C@@H](Cc1ccccc1)C(=O)NCc1ccccc1	4207
CCc1cc(-c2nnn(CCC3COCCO3)c2CC)ccc1-c1cn(Cc2ccc3ccccc3c2)nn1 (configuration not stated)	3111
O=[N+]([O-])c1ccc(CN2[C@H](COCc3ccccc3)[C@@H](N3CCCC3)CS2(=O)=O)cc1	5729
CCc1nc2c(OCc3ccc(OC)cc3)cccn2c1N(C)C(=O)c1ccco1	3330
Cc1ccc(CNC(=O)[C@H]2O[C@@H](n3cnc4c(N)ncnc43)[C@H](O)[C@@H]2O)o1	5531
CCOC(=O)c1c(-c2cc(OC)c(OC)c(OC)c2)csc1NC(=O)c1ccccc1	3874
O=C(NCc1ccccc1)c1cc(C2COCCN2C(=O)C2CC2)on1 (configuration not stated)	3111
CCc1nc2ccc(C(=O)NCCNC(C)=O)cn2c1N(C)Cc1ccc(OC)cc1	4357
Cc1nc(C(F)(F)F)ccc1C(=O)N1CCCCCC1(C)C(=O)NCC(C)C (configuration not stated)	4119
COC(=O)[C@]12CCCCC=C1N(Cc1cccc3ccccc13)C(=O)[C@H](CC(=O)NCc1ccc(C)o1)C2	5292
O=C(COc1ccc([N+](=O)[O-])cc1)NNC(=O)C1COc2ccccc2O1 (configuration not stated)	3715
O=C1NC(Cc2ccccc2)c2nc3ccc(Br)cc3c(=O)n2-c2cc3ccccc3cc21 (configuration not stated)	3903

(listing goes on)
Molecule	Bead autofluor
CCC[C@H]1CN(c2ccccc2)C(=O)[C@@H]1CC(=O)Nc1ccc(OC)cc1	4159
CCN(CC)C(=O)C1=C(C)N(Cc2ccc(F)cc2)C(=O)C(CC(=O)NC2CCCC2)C1 (configuration not stated)	3238
COCCCNc1ccn2nc(-c3ccc(OCc4ccccc4)cc3)cc2n1	3443
CC(=O)Oc1ccc2c(c1)C(=O)CCCCCC(=O)O2	2837
CC(=O)N1CC2(CC(c3ccc(Cl)cc3Cl)=NO2)CN1c1cccc(Cl)c1 (configuration not stated)	3552
COc1ccc(CC(=O)N(CCC2=CCCCC2)c2c(N)n(Cc3ccccc3)c(=O)[nH]c2=O)cc1	2958
COc1ccc(OC(F)(F)F)cc1CC1(C)C(=O)Nc2ccc(-c3ccsc3)cc21 (configuration not stated)	3690
CCCC(=O)N1CCC1(C)C(=O)NS(=O)(=O)c1ccc(C)cc1 (configuration not stated)	3505
CC(C)CC1C(=O)N(Cc2cn(CCC3OCCCO3)nn2)CCS(=O)(=O)N1Cc1ccc(-c2cccc(CO)c2)cc1 (configuration not stated)	3441
CC1(Cc2ccc(Cl)cc2)C(=O)Nc2ccc(-c3cccnc3)cc21 (configuration not stated)	3661
CCNC(=O)C1(C)CCN(C(=O)c2cccc(Cl)c2)C1 (configuration not stated)	3823
CC(C)(C)Cc1c(-c2cccc(Cl)c2)nc2ccc(Br)cn12	4082
CCNC(=O)C1(C)CCCN(C(=O)c2ccc(OC)c(F)c2)C1 (configuration not stated)	3718
Cc1ccc(S(=O)(=O)N2Cc3ccccc3CC2C(=O)N(C)C)cc1 (configuration not stated)	3961
COc1ccccc1-c1ccc2c(c1)C(C)(Cc1cc(Cl)ccc1C(F)(F)F)C(=O)N2 (configuration not stated)	3799
CCCCCCn1cc(CN2CC(N3CCN(CCN(C)C)CC3)CS2(=O)=O)nn1 (configuration not stated)	6519
OC(c1ccc(F)cc1)c1nc(-c2cccs2)cs1 (configuration not stated)	2996
CCOc1ccc(CCNC(=O)COC(=O)c2ccc(C)c(S(=O)(=O)N3CCOCC3)c2)cc1OCC	2831
C#C[C@]1(O)[C@H](O)CC2C3CC[C@H]4C[C@@H](O)CC[C@]4(C)C3CC[C@@]21C (some centres not stated)	3731
NC(Cc1ccccc1)c1csc(Nc2ccc(C(=O)NCCCO)cn2)n1 (configuration not stated)	3840
CCc1nc2ccc(C(=O)NCCNC(C)=O)cn2c1N(CC)Cc1cccc(Br)c1	3856
CCN(C(=O)c1cc(OC)c(OC)c(OC)c1)C1CCCCC1	2848
CCCC(C)(C)C(=O)N1CCC1(C)C(=O)Nc1cccc2ccccc12 (configuration not stated)	3797
CCCc1c(C(=O)N/N=C/C2CC=CCC2)nnn1-c1nonc1N (configuration not stated)	3491
CCS(=O)(=O)N1Cc2cc(C(=O)N(C)C)nc(-c3cccc(-c4ccc(F)cc4)c3)c2[C@H]1CCO	6069
Clc1ccc(-c2nc3ccc(Cl)cn3c2Cc2cccc(Cl)c2)cc1	4814
COc1ccc([C@H]2C[C@H](O)C[C@@H](CCn3cc(-c4ccccc4)nn3)O2)cc1	6286
COc1ccc(OC)c(NC(=O)C2CCCN2S(=O)(=O)c2ccc3c(c2)CC(C)N3C(C)=O)c1 (configuration not stated)	3851
CCc1nc2ccc(C(=O)NCCc3ccccn3)cn2c1N(C)Cc1ccc(N(C)C)cc1	3852
NC(=O)c1ccc(NC(=O)COC(=O)C23CC4CC(CC(C4)C2)C3)cc1	3474

Compounds above containing a thiophene ring, fused or not (4):
Molecule	Bead autofluor
O=C(CC[C@H]1O[C@@H](n2ccc(=O)[nH]c2=O)[C@H](O)[C@@H]1O)N[C@H](Cc1ccccc1)C(=O)NCc1cccs1	4174
CCOC(=O)c1c(-c2cc(OC)c(OC)c(OC)c2)csc1NC(=O)c1ccccc1	3874
COc1ccc(OC(F)(F)F)cc1CC1(C)C(=O)Nc2ccc(-c3ccsc3)cc21 (configuration not stated)	3690
OC(c1ccc(F)cc1)c1nc(-c2cccs2)cs1 (configuration not stated)	2996

Another view of part of the listing above:
CCc1nc2ccc(C(=O)NCCNC(C)=O)cn2c1N(CC)Cc1cccc(Br)c1
  Bead autofluor: 3856
CCN(C(=O)c1cc(OC)c(OC)c(OC)c1)C1CCCCC1
  Bead autofluor: 2848
CCCC(C)(C)C(=O)N1CCC1(C)C(=O)Nc1cccc2ccccc12 (configuration not stated)
  Bead autofluor: 3797

Additional entries:
Molecule	Bead autofluor
CC(O)(c1ccccc1)c1nc(-c2ccc(S(C)(=O)=O)cc2)cs1 (configuration not stated)	3345
COCCNc1ncnc2c1ncn2[C@H]1CN(Cc2ccc(OC)cc2)C[C@@H](CO)O1	2986
COc1ccc(NC(=O)C[C@@H]2C(=O)N(Cc3ccccc3)CC2(C)C)cc1	3472
CN(CC(=O)Nc1ccc(Cl)c(C(F)(F)F)c1)C(=O)COc1cccc2cccnc12	2957
Cc1ccc(NC(=O)COC(=O)c2ccc3ncsc3c2)c(C)c1	2879
CC(=O)C1=CCC(c2ccc(Cl)c(Cl)c2)N(S(=O)(=O)c2ccc(C)cc2)C1 (configuration not stated)	6088
CN1C(=O)CN=C(c2ccc[nH]2)c2cc(Cl)ccc21 (tested in a mixture with another compound)	3969
COc1cccc(C(O)c2nc(-c3ccc(Cl)cc3)cs2)c1 (configuration not stated)	3602
CC1(C(=O)NS(=O)(=O)Cc2ccccc2C(F)(F)F)CCN1C(=O)Cc1ccsc1 (configuration not stated)	3670
Cc1ccc(C)c(NC(=O)C2(C)CCN2C(C)C)c1 (configuration not stated)	2959
O=C(NCCc1ccc2c(c1)OCO2)Oc1ccccc1	4015
CCN1C(=O)[C@@H]2[C@@H]3CN(S(=O)(=O)c4ccc(C)cc4)[C@@H](c4ccccc4)[C@@H]3C(=O)C[C@@H]2C1=O	5296
COc1ccncc1-c1ccc(C2=CC(=O)CC(C)(C)C2=O)cc1	3319
COc1cccc(CNC(=O)[C@@H]2CCCN2C(=O)[C@H]2CCCCN2C(=O)c2c(F)cccc2F)c1	4412
COc1ccc(S(=O)(=O)N2CCC(C(=O)NCCC(=O)NCc3cccnc3)CC2)cc1	2973
Cc1ccc(S(=O)(=O)NC(=O)NC2=NC(C)(C)N(c3ccc(Cl)c(Cl)c3)C(N)=N2)cc1	5799
CC(C)(C)c1ccc(CC(=O)N2CCC2(C)C(=O)NS(=O)(=O)c2ccc(Cl)s2)cc1 (configuration not stated)	3918
CC1(C(=O)Nc2cccc3c2CCCC3)CCN1C(=O)C1(c2ccccc2)CC1 (configuration not stated)	3755
CC1=C(C(=O)N2CCOCC2)CC(CC(=O)NCc2cccc3ccccc23)C(=O)N1Cc1ccccc1 (configuration not stated)	3669
CCOC(=O)c1c(-c2cc(OC)c(OC)c(OC)c2)csc1N	3400
CCc1nc2c(OCc3ccc(OC(F)F)cc3)cccn2c1N(C)C(=O)c1ccco1	3701
Cc1ccc(-c2ccc3c(c2)O[C@H](CN(C)Cc2cncnc2)[C@@H](C)CN([C@H](C)CO)S3(=O)=O)cc1	2914
CCCCOCCCNC(=O)C[C@@H]1C[C@@]2(C(=O)OC)CCCCC=C2N(CCC2=CCCCC2)C1=O	5999
CCc1nc2ccc(C(=O)Nc3cccc(NS(C)(=O)=O)c3)cn2c1N(C)CCN1CCOCC1	3734
CSCCNC(=O)C1(C)CCN1C(=O)CCc1ccccc1 (configuration not stated)	3773
